Sfp inh: inhibitors of Bacillus subtilis Sfp phosphopantetheinyl transferase; Q9F4F7; Biochemical Sfp PPTase activity, qHTS; Potency, µM, without a hit: max response, negative = inhibition, usual class: inhibitors; 310,000 compounds, 3.5% hits; active = well fitted inhibition curve with a large enough effect; inconclusive = small, poorly fitted or top-dose-only effect, or another doubt; inactive = no such curve, though single readings can be large or run the other way;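 note: the enzyme is Sfp with the accession as filed and its product quenches rhodamine fluorescence; potency is the fitted concentration of half-maximal effect; 0% = enzyme reaction without inhibitor and -100% = no enzyme wells; top concentration of the series not given in the record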
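After 15 min at room temperature with compound, 15 nM Sfp received 5 uM rhodamine-CoA plus 12.5 uM BHQ-2-ybbR (50 mM Hepes pH 7.6, 10 mM MgCl2). Rate came from the fluorescence difference over 30 min, ex 525/em 598 nm.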
ClpP mod: qHTS Assay for Activators of ClpP. Potency, µM (doses to about 57.5 µM), for the others: at the top dose activity change, negative = active. 340,000 compounds, 1.9% hits. purified B. subtilis ClpP, FRET peptide cleavage, 20 min. AID 651965, 2013; active = well fitted falling curve with a large enough effect; inconclusive = small, poorly fitted or top-dose-only effect; inactive = no such curve, though single readings can be large or run the other way; note: potency is the fitted concentration of half-maximal effect; the source files actives as falling curves though it sought activators and does not explain the sign; nearly all actives have a fitted effect of over 65% in size; many hits overshoot -100%
Target sequence (P80244 whole entry, looked up): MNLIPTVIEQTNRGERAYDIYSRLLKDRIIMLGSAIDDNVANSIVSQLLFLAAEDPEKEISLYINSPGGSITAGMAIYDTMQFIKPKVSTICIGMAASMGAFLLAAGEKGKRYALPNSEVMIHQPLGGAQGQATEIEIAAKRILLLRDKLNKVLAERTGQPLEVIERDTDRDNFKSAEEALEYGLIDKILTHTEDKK
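ClpP 10 microg/mL final, pH 8 Tris/KCl buffer with BSA, glycerol, Tween-20; compound pinned in; FRET-FV substrate; RT 20 min; Ex320/Em430; ΔFRET vs ADEP 5.8 microM, DMSO, no enzyme.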
gsp ag: agonists of gsp mutant (McCune-Albright syndrome) | gsp mutant cells, cAMP HTRF, 30 min; control for the full effect not named in the record | Potency, µM (highest dose often 76.9 µM), for inactives: at the highest dose activation (cAMP increase), most hits filed as activators | 340,000 compounds, 0.13% hits; active = well fitted activation curve with a large enough effect; inconclusive = small, poorly fitted or top-dose-only effect, or another doubt; inactive = no such curve, though single readings can be large or run the other way; cell line not stated here;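 note: phosphodiesterase inhibitor Ro 20-1724 added with compounds to block cAMP breakdown; potency is the fitted concentration of half-maximal effect; nearly all actives have a fitted effect of over 60% in size; about a fifth of the inactives were tested at one dose only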
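Cells stably selected in G418 were plated at 2000/well, grown 16-24 hr, then given compounds in DMSO with the PDE inhibitor […] (300 uM solution added) for 30 min at 37C; cAMP was read by HTRF.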
CtBP-E1A inh: inhibitors of CtBP/E1A interaction; AlphaScreen GST-E1A/His-CtBP binding, 1536-well; stronger effect = lower value; control for the full effect not named in the record; activity change, % (concentration not given with the values); 340,000 compounds, 0.49% hits; AID 651724; in the data active means activity change below about -65%; inconclusive means about -30% to -65%; inactive means above about -30%; note: % is set by controls: 0 for no effect and ±100 for the full control effect
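Steps: dispense buffer (Tris pH 8.0, NaCl 300 mM, TCEP 1 mM, BSA, Tween 20); add 5X protein mix (GST-E1A, His-CtBP, 125 nM each); pin 23 nL compound; 2 h at 37 °C, dark; add 5X beads (50 ug/mL); 1 h; read.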
Menin MLL FP FL: inhibitors of human menin-MLL interaction, wild-type MLL peptide | Fluorescence polarization, fluorescein-MLL peptide displacement from menin | FP activity change, % at 61.4 µM | 290,000 tested, under 10 active; inconclusive = falling polarisation curve, or a change in total fluorescence; inactive = total fluorescence flat and polarisation flat or rising; no compound was filed as active; the % refers to the polarisation; negative = inhibition;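 note: % of control where 0% means no effect; inhibitors lower the polarisation; unlabelled MLL peptide was the positive control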
gsp antag: antagonists of gsp mutant (McCune-Albright syndrome); gsp-mutant cells, cAMP HTRF, 30 min; control for the full effect not named in the record; Potency, µM (doses to about 76.9 µM), inactives show at the top dose activity change, negative = inhibition, actives largely listed as inhibitors; 340,000 compounds, 0.4% hits; active = falling curve of any shape with a large fitted effect; inconclusive = falling curve, mostly with a smaller effect; inactive = flat or rising curve; cell line not stated here;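 note: intracellular cAMP measured with PDE inhibitor Ro 20-1724 present during compound exposure; potency is the fitted concentration of half-maximal effect; % is set by controls: 0 for no effect and ±100 for the full control effect; nearly all actives have a fitted effect of over 65% in size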
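Cells, 2000/well, grown 16–24 h in DMEM 10% FBS with 0.5 mg/ml G418, then compounds plus […] (300 uM addition stock), 30 min at 37C. cAMP read by HTRF (cAMP-d2 and anti-cAMP antibody-K in lysis buffer) after 30 min RT.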
TRPV1 PAM: potentiators of human vanilloid receptor 1 (TRPV1) | 320,000 compounds, 0.02% hits | potentiation, % at 8.33 µM | Q8NER1 | AID 540277 | TRPV1-expressing cells, Fluo-8 calcium influx, capsaicin EC20 potentiation; host cell line not named in the record; control for the full effect not named in the record; active means potentiation above 80%; inconclusive means 30% to 80%; inactive means below 30%; note: 0% is about no effect
Target sequence (Q8NER1 whole entry, looked up): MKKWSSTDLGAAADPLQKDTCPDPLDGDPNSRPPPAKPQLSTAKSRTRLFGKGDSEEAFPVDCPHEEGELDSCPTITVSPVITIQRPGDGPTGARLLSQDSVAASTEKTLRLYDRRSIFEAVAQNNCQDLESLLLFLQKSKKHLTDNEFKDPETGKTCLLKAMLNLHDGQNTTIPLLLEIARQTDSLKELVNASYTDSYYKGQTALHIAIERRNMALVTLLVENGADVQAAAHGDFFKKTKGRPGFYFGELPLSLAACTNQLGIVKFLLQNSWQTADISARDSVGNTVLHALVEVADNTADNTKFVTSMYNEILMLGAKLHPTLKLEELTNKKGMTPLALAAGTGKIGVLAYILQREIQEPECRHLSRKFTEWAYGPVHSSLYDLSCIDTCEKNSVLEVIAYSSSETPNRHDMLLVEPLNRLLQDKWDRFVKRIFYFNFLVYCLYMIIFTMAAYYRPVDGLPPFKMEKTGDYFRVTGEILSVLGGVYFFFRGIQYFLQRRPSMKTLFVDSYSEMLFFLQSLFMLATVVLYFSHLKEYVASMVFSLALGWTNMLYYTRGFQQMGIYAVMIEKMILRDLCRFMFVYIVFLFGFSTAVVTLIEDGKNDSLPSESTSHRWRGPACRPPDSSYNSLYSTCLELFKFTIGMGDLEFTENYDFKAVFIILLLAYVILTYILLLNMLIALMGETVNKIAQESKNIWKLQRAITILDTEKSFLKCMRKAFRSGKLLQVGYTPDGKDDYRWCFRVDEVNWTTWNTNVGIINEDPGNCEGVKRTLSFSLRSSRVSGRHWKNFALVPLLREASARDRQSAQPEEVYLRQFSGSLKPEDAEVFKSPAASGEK
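TRPV1-expressing cells were cultured overnight at 35.5C and loaded with Fluo-8 calcium dye for 40 to 90 min at room temperature. After a 10 s baseline, compound was added and calcium influx was read kinetically for 3 min (ex 480/em 520 nm).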
* marks the source's active call; other numbers are inactive results; ? = inconclusive; nt = no result given; & = joins results of further samples; [ ] = dose if it differs, or a comment. Rows were taken by chance. Share with any hit: about 5.3%.

SMILES | Sfp inh | ClpP mod | gsp ag | CtBP-E1A inh | Menin MLL FP FL | gsp antag | TRPV1 PAM
C#CCOCCOCCOCCNc1nc(N2CCN(C(=O)CCCCCCCCCCNC(=O)[C@H](CCCCN)n3cc(CCCC(=O)O)nn3)CC2)nc(N2CCN(C(=O)CCCCCCCCCCNC(=O)[C@@H]([C@H](C)O)n3cc(C)nn3)CC2)n1 | nt | 2.0% | nt | -3 | nt | -11% | 9
CS(=O)(=O)NN1C(=O)c2ccccc2NC1c1c[nH]c2ccccc12 (stereo not given) | 12% | -29% | -46%[inhibitor] | -4 | 0.6 | 12% | 6
O=C(Oc1ccc(OC(=O)c2ccco2)c(S(=O)(=O)c2ccc(Br)cc2)c1)c1ccco1 | -3% | 1.2% | -53%[inhibitor] | -12 | -0.9 | -11% | 14
O=C(CSc1ncccn1)Nc1ccc2[nH]c(=O)[nH]c2c1 | nt | -1.4% | 10%[15.4 µM] | -4 | nt | 9% | 12
CCOc1ccc(C=NCC(O)c2ccccc2)cc1 (stereo not given) | 16% | 1.8% | -9% | nt | 12 | -2% | 23
CCn1c(CC(=O)Nc2ccccc2F)nnc1SCC(=O)N1CCN(c2ccccc2)CC1 | 11% | -0.5% | ? | -1 | 6.7 | -11% | -17
CO/N=C/C1CCN(c2ncc(C(F)(F)F)cc2Cl)C1=O (stereo not given) | 16% | nt | 12%[15.4 µM] | 11 | -0.1 | 8% | 1
O=C(c1cccc(N2C(=O)C3CC=CCC3C2=O)c1)N1CCN(c2ccccc2)CC1 (stereo not given) | -6% | -0.9% | 22% | 14 | 5.1 | -15% | 3
CCCCn1c2ccccc2c2cc(CC(N)=O)ccc21 | 14% | nt | 17%[15.4 µM] | -12 | -1.4 | -5% | -9
COc1cc(/C=C2\C(=O)N(CCC#N)N=C2C)ccc1OCC(=O)Nc1ccccc1 | 7% | 3.6% | -10% | 6 | -2.2 | 20% | -10
C[C@H](CO)N1C[C@H](C)[C@@H](CN(C)C(=O)Nc2ccccc2)Oc2ccc(NC(=O)CCN3CCOCC3)cc2C1=O | nt | 0.5% | nt | 0 | nt | 5% | nt
O=C(CCl)N(Cc1cc(=O)[nH]c2ccccc12)c1ccccc1 | -25% | ? | ? | nt | -2.3 | -8% | -2
C1CN(CCN2CCOCC2)CCN1 | 5% | -4.8% | 5%[15.4 µM] | 1 | -3.0 | 0% | 2
O=S(=O)(Nc1cc(S(=O)(=O)N2CCOCC2)ccc1Cl)c1ccccc1 | nt | 1.8% | 22% | 3 | nt | -5% | nt
Cc1ccc(CCNC(=O)C2CCC(=O)N2Cc2ccc(F)cc2)cc1 (stereo not given) | -6% | 0.2% | -9% | 0 | 0.0 | -1% | 2
CC1(c2ccc(Cl)cc2)NC(=O)CS1 (stereo not given) | -12% | nt | -1%[15.4 µM] | -1 | 0.4 | -8% | 15
Cn1c(=O)c2cn(-c3ccc4c(c3)OCCO4)cc2n(C)c1=O | 1% | -5.5% | ? | 6 | -2.6 | 7% | -4
CCc1cc(=O)oc2c3c(cc(OCC(=O)NCCCC(=O)O)c12)OC(C)(C)CC3 | 6% | 4.2% | 28% | nt | -3.7 | 4% | -10
Cc1noc(C)c1NC(=O)Nc1ccc2c(c1)C(=O)N([C@H](C)CO)C[C@H](C)[C@@H](CN(C)C(=O)Nc1ccc3c(c1)OCO3)O2 | nt | -1.9% | nt | 6 | nt | 5% | nt
CCCC(NC(=O)COc1cc2c(c3oc(=O)c(C)c(C)c13)CCC(C)(C)O2)C(=O)O (stereo not given) | 6% | 3.9% | 19% | -10 | -11 | -7% | 8
CCN(CC(=O)Nc1c(F)cccc1F)C(=O)CCCc1nc2ccccc2c(=O)[nH]1 | nt | -4.0% | -8% | -1 | nt | -4% | -6
CCc1ccc2[nH]c(=O)c(CN(Cc3ccc(OC)cc3)Cc3nnnn3CCOC)cc2c1 | 13µM* | -25% | -3% | 0 | 1.1 | -9% | 12
CC(C)Oc1ccc(NC(=O)C2CCCNC2=O)cc1 (stereo not given) | 8% | 1.9% | -7% | -21 | 5.0 | 5% | -1
CCN(CC)CCNC(=O)CNC(=S)N(CCCN1CCOCC1)Cc1cccs1 | 18% | nt | 5%[15.4 µM] | -3 | -5.2 | 7% | -13
CCCOC(=O)C1=C(C)NC2=C(C(=O)C(C(=O)OC)C(C)C2)C1c1ccc(N(C)C)cc1 (stereo not given) | -14% | -18% | 0% | -14 | 6.2 | -15% | nt
SMILES | Sfp inh | ClpP mod | gsp ag | CtBP-E1A inh | Menin MLL FP FL | gsp antag | TRPV1 PAM
Cc1c(C(=O)N(C)Cc2ccccc2)oc2c(Cl)cccc12 | -1% | nt | -23% | 17 | -0.3 | -25% | ?
CCCCN1C(=N)N([C@@H](CCC)CN2CCC[C@H]2CN2C(N)=NC[C@H]2CC(C)C)C[C@H]1Cc1ccccc1 | nt | -0.9% | nt | -6 | nt | 8% | nt
COc1cccc(C2C(C#N)=C(N)Oc3cc(N)ccc32)c1OC (stereo not given) | 5% | -1.7% | -1% | -3 | 3.8 | 6% | 17
CCCCn1c(N)c(N(CCC(C)C)C(=O)Cc2ccc(S(=O)(=O)N3CCOCC3)s2)c(=O)[nH]c1=O | nt | -4.0% | -3%[15.4 µM] | 3 | nt | -7% | -3
Cc1cccc(C(=O)N2CCc3c([nH]c4ccccc34)C2CC(C)C)n1 (stereo not given) | 5% | nt | -24% | -1 | -15 | 0% | -2
CCCCn1c(-c2ccsc2)nc2c1c(=O)[nH]c(=O)n2CCC | 35µM* | -6.4% | 8% | 2 | 3.6 | 0% | -1
O=C(NCCCN1CCCC1)c1cc(Sc2ccc(F)cc2)nc2ccccc12 | 7% | nt | -3%[15.4 µM] | -23 | 1.0 | 15% | -6
O=S1(=O)[C@H]2C[C@@H]3C=C[C@]2(CN1Cc1ccc(C(F)(F)F)cc1)O3 | 8% | 2.0% | nt | 1 | 4.0 | 12% | 4
CC(C)(C)n1nnnc1C(c1cccs1)N1CCCC2(CCCCC2)C1 (stereo not given) | 2% | 0.3% | -2% | -15 | 1.6 | -11% | -6
CCc1nnc(-n2nc(C)cc2-c2ccccc2)n1N | 5% | -1.4% | -34%[inhibitor] | 11 | -0.5 | -5% | -19
CS(=O)(=O)N(CC(=O)Nc1ccc(Br)cc1F)C1CCCCC1 | 3% | -1.3% | -12%[15.4 µM] | -2 | -4.3 | 2% | 6
COc1ccc(Nc2ncnc3sccc23)cc1 | -9% | nt | 4%[15.4 µM] | -16 | 4.8 | 4% | 1
Fc1ccccc1CSc1nnc2ccc(-c3ccncc3)nn12 | 8% | -0.4% | 4% | -15 | -2.8 | -1% | 29
Cc1ccc(NC(=O)CN(C)CC(=O)Nc2ccccc2C#N)cc1 | -16% | nt | 7%[15.4 µM] | 2 | 4.6 | 5% | -4
COc1nnc(-c2ccc(N3CCCCC3)c(N)c2)c2ccccc12 | nt | -1.9% | -20% | -15 | nt | -17% | nt
CCc1nn(CC(=O)NCCCN2CCN(C)CC2)c(=O)c2cc3occc3n12 | 5% | -5.5%&-6.8% | ? | 0 | nt | 6% | -5
COc1cccc(-c2nc3n(n2)C(c2ccccc2Cl)C(C(N)=O)=C(C)N3)c1 (stereo not given) | 3% | -5.3% | -8% | 4 | -1.1 | ? | 8
COCCNC(=O)[C@@H]1CSC2c3ccc(OC)c(OC)c3C(=O)N21 (stereo not given in full) | 8% | -11% | 19% | -3 | -0.5 | 2% | 0
CC1Cc2ccccc2N1C(=O)CSC1=NCCS1 (stereo not given) | -4% | -2.7% | -21% | 11 | 6.0 | -2% | 2
O=C(N/C(=C/c1ccc(Br)cc1)C(=O)N1CCCC1)c1cccs1 | 10% | nt | 9% | 5 | 5.7 | -1% | -4
COc1cc(C)ccc1OCCOc1c(C)cc(Cl)cc1Cl | -8% | 0.5% | -1% | 40 | 5.5 | -7% | -1
O=c1c2ccccc2ncn1-c1cccc(Br)c1 | -1% | nt | -43%[inhibitor] | 11 | 7.9 | 9% | 2
CC1CN(CCCCOc2ccc(F)cc2)CC(C)O1 (stereo not given) | -28% | nt | 0%[15.4 µM] | 3 | -3.9 | 3% | -1
CC(=O)c1ccc(NC(=O)C2CCCNC2=O)cc1 (stereo not given) | 16% | 0.1% | 14% | 10 | 0.6 | 11% | 6
Nc1ccc(N=Nc2ccc(N)cc2)cc1 | -5% | -1.2% | -34%[inhibitor] | -5 | ? | -7% | 5

Rewritten as comma-separated lines: part of the list above.
mol,Sfp inh,ClpP mod,gsp ag,CtBP-E1A inh,Menin MLL FP FL,gsp antag,TRPV1 PAM
CS(=O)(=O)N(CC(=O)Nc1ccc(Br)cc1F)C1CCCCC1,3%,-1.3%,-12%[15.4 µM],-2,-4.3,2%,6
COc1ccc(Nc2ncnc3sccc23)cc1,-9%,nt,4%[15.4 µM],-16,4.8,4%,1

Later entries.
SMILES | Sfp inh | ClpP mod | gsp ag | CtBP-E1A inh | Menin MLL FP FL | gsp antag | TRPV1 PAM
CCN(C(=O)c1ccc(NC(=O)C2CCCCC2C(=O)O)cc1)c1ccccc1 (stereo not given) | nt | -2.3% | -83%[inhibitor] | 2 | nt | nt | nt
Cc1c(Cl)cccc1NC(=O)CSc1ncnc2c1cnn2CCc1ccccc1 | ? | -1.3% | 5% | 8 | -0.7 | 15% | -12
CCC(=O)NNC(=O)CCC(=O)Nc1ccc(C)cc1C | 11% | nt | 12%[15.4 µM] | nt | -0.5 | 2% | 2
O=C(COC(=O)C12CC3CC(CC(Br)(C3)C1)C2)Nc1ccc2[nH]c(=O)[nH]c2c1 | nt | 1.6% | 1%[15.4 µM] | 0 | nt | -23% | -9
O=C(COC(=O)c1ccc(O)cc1O)NNC(=O)c1cccs1 | nt | 1.7% | -6% | -3 | nt | 4% | -2
COc1ccc(NC(=S)N2CCC(C(=O)c3ccc(F)cc3)CC2)c(OC)c1 | -23% | -2.2% | ? | -5 | -4.2 | -7% | -12
COC(=O)c1ccc(NS(=O)(=O)c2ccc(OC)cc2)cc1 | 19% | -3.6% | 0% | 3 | -1.6 | -18% | -1
O=C(c1ccc(COc2ccccc2Cl)o1)N1N=C(C(F)F)CC1(O)C(F)F (stereo not given) | ? | 1.5% | 5% | -21 | 12 | -2% | 5
